Source: PubChem
Six1-Eya2 blk = qHTS Assay for Inhibitors of the Six1/Eya2 Interaction; Homeobox protein SIX1 (Homo sapiens) + Protein phosphatase EYA2 (Homo sapiens), …; AlphaScreen GST-Six1/His-Eya2 binding, biochemical; active compounds read low; control for the full effect not named in the record; activity change, % (test concentration not listed); 360,000 compounds, 0.56% hits; AID 651725, 2012; in the data active = activity change below about -65%; inconclusive = about -30% to -65%; inactive = above about -30%; also: % is scaled to controls: 0 for no effect and ±100 for the full control effect
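AlphaScreen luminescence read after one hour at 37 °C in darkness. Pin-transferred compounds met GST-Six1 and His-Eya2 protein (5X stock 250 nM/500 nM) plus glutathione donor and Ni-chelate acceptor beads (5X, 50 ug/mL).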
D2 agonist = Beta-Arrestin HTS for Positive Allosteric Modulators of the Human D2 Dopamine Receptor: Agonists | 360,000 compounds, 0.084% hits | DiscoveRx PathHunter D2 beta-arrestin, luminescence, 90 min; 100% = 57 uM dopamine signal | activation, % (no concentration beside the values); in the data active = activation above about 40%; inconclusive = about 15% to 40%; inactive = below about 15%; also: compound concentration not given in the record; the text of the record calls up to 30% inactive
Target sequence (P14416 whole entry, looked up): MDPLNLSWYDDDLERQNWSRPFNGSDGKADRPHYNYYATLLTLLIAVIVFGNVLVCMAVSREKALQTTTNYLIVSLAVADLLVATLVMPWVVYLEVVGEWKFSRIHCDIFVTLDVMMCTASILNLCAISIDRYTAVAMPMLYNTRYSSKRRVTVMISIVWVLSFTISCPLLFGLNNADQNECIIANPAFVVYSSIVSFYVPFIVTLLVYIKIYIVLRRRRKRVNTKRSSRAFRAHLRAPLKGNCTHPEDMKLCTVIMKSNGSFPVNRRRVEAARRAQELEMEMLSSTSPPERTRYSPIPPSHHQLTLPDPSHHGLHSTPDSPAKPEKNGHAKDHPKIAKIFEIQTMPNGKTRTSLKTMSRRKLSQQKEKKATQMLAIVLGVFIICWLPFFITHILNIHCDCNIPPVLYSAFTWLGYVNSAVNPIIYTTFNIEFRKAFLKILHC
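Agonist mode: compounds alone added to overnight-plated D2 PathHunter cells for 90 min at 37 C, with 57 uM final dopamine (EC100) defining full response. Beta-arrestin recruitment detected by chemiluminescent reagent, read after 1 h at ambient temperature.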
D2 potentiator = Beta-Arrestin HTS for Positive Allosteric Modulators of the Human D2 Dopamine Receptor: Potentiators | 360,000 compounds, 0.23% hits | D(2) dopamine receptor (Homo sapiens), P14416 | potentiation, % (concentration not given with the values) | AID 624464, 2012 | DiscoveRx D2 beta-arrestin cells, luminescence, 90 min; 100% = 57 uM dopamine signal; active = potentiation of 50% or more; inconclusive = 30% to 50%; inactive = 30% or less;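 also: tested on top of an EC20 dose of dopamine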
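PathHunter beta-arrestin assay in DiscoveRx D2 cells. Compounds were added with an EC20 of dopamine (50 nM final) for 90 min at 37 deg C. Luminescence was read 1 h after detection reagent, with 57 uM dopamine as the EC100 control.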
TRPML1 blocker = qHTS for Inhibitors of the Human Mucolipin Transient Receptor Potential 1 (TRPML1) | Mucolipin-1 (Homo sapiens), Q9GZU1 | 390,000 compounds, 0.02% hits | activity change, negative = inhibition, % (no concentration beside the values) | TRPML1-inducible cells, Ca2+ dye fluorescence, FDSS; active compounds read low; inhibition of EC80 agonist-evoked calcium signal; in the data active means activity change below about -50%; inconclusive means about -30% to -50%; inactive means above about -30%;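 also: stimulus is agonist 54-4 at its EC80 concentration; % is scaled to controls: 0 for no effect and ±100 for the full control effect; compound concentration not given in the record; the text of the record puts the active cut at -80%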
Target sequence (Q9GZU1 whole entry, looked up): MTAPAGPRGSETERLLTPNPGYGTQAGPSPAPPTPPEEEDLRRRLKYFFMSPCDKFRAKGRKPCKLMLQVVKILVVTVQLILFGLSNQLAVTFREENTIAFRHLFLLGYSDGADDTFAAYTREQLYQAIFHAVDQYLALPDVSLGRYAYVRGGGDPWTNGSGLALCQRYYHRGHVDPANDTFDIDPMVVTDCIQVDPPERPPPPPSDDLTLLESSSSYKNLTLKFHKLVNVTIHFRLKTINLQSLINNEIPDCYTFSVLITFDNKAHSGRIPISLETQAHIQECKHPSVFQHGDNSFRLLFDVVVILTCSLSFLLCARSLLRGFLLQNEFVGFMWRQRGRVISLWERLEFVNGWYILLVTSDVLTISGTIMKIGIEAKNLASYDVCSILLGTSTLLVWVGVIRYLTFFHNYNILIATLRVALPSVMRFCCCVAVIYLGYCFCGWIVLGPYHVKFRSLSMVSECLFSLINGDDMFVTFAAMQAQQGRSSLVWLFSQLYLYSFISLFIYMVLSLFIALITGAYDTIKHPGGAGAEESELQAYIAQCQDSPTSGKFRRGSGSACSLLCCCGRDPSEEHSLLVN
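TRPML1-DL cells, Tet-induced overnight (~16 h, 37 °C) at 1,500 cells/well, were loaded with Ca8 no-wash dye plus quencher for 45-90 min at room temperature. Compounds were pinned during FDSS kinetic reading; agonist 54-4 at EC80 (4 uM final) then added.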
PINK1 modulator = A Quantitative High throughput Screen to Identify Chemical Modulators of PINK1 Expression | PINK1 immunofluorescence, high-content cytometry, 24 h | Potency, µM (titrated, usually from 76.6 µM), inactives show top-dose activation (PINK1 increase), most hits filed as activators | 410,000 compounds, 0.2% hits | AID 624263, 2012; active = well fitted activation curve with a large enough effect; inconclusive = small, poorly fitted or top-dose-only effect; inactive = flat fitted curve, though single readings scatter; cell line not stated here;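 also: potency is read from the fitted curve at half-maximal effect; % of control where 0% means no effect; nearly all actives have a fitted effect of over 65% in size; a mitochondrial uncoupler was the plate control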
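Decision-based qHTS: stable cells, 24 h exposure to five compound concentrations, CCCP as control. Fixed cells stained for PINK1 plus nuclear, mitochondrial and cell markers, cytometer read.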
TRPML1 ag = qHTS for Agonists of the Human Mucolipin Transient Receptor Potential 1 (TRPML1); activation, % (concentration not given with the values); 410,000 compounds, 0.12% hits; TRPML1-expressing cells, Ca2+ dye fluorescence, FDSS; host cell line not named in the record; reference of the full effect not given here; Mucolipin-1 (Homo sapiens), Q9GZU1; in the data active = activation above about 50%; inconclusive = about 30% to 50%; inactive = below about 30%; also: 0% is about no effect; the text of the record puts the active cut at 80%
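Tet-induced TRPML1-DL cells, 1,500 per well, cultured overnight, were loaded with a no-wash Ca2+ dye for 45–90 min. Calcium fluorescence was recorded on the FDSS for 110 s after compound addition, before the EC80 agonist (4 uM 54-4) was added.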
An asterisk follows results filed as active; ? = inconclusive; . = not tested or not shown; [ ] = remark or other dose.

SMILES	Six1-Eya2 blk	D2 agonist	D2 potentiator	TRPML1 blocker	PINK1 modulator	TRPML1 ag
O=C(O)C1C2C=CC(C2)C1C(=O)N1CCN(CCO)CC1 (configuration not stated)	2	-0.3	5	12	-0.9%	0.0
CCN(CC)C(=O)C1=C(C)N(Cc2ccccc2)C(=O)C(CC(=O)NC(c2ccccc2)c2ccccc2)C1 (configuration not stated)	-5	-7.8	-8	25	2.5%	0.9
Cc1oc(C(C)(C)C)cc1C(=O)N1CCN(C(c2ccccc2)c2ccccc2)CC1	-4	0.1	-15	-5	?	14
Cc1cccc(OCC(=O)NC2CCCCCC2)c1C	-3	-1.8	-6	-6	4.6%	4.3
CC(C)Sc1nnc(NC(=O)CCc2ccccc2)s1	-1	0.9	-7	-8	4.4%	0.0
CCOC(=O)c1ccc(NC(=O)CC(C)n2nc(C)cc2C)cc1 (configuration not stated)	.	.	.	-23	-1.8%	1.0
Cc1ccc(OCC(O)CN2CCC(Cc3ccccc3)CC2)c(C)c1 (configuration not stated)	-10	-0.9	-28	-9	-0.7%	0.1
O=C(CC1(O)C(=O)Nc2ccccc21)c1cccc(Br)c1 (configuration not stated)	4	-0.1	-7	-2	1.3%	0.4
CCn1c(CC(=O)Nc2ccccc2)nnc1SCC(=O)Nc1nnc(C)s1	7	0.3	-1	15	-1.7%	-0.5
COCCCNC(=O)c1cc2cc3cc(OC)ccc3nc2o1	?	1.4	-3	16	1.0%	3.4
CC(=O)c1cccc(NC(=S)NCCCCc2ccccc2)c1	-6	0.7	-16	-4	?	1.6
CCOc1cccc(CC(=O)N2CCc3c([nH]c4ccc(OC)cc34)C2c2ccc(F)cc2)c1OCC (configuration not stated)	.	.	.	2	1.9%	-1.1
NC(=O)C1CCN(C(=O)COc2ccc3ccccc3c2)CC1	-1	-0.6	4	19	-0.5%	1.1
CCn1c(/C=C/c2ccccc2Cl)nc2ccccc2c1=O	-11	-6.5	-3	-5	7.5%	0.3
CC(=O)C1=C(C)NC(SCC(=O)Nc2nccs2)=C(C#N)C1c1ccccc1Cl (configuration not stated)	-9	-0.9	-15	5	6.4%	0.3
O=C1CCCC2=C1C(c1ccc(OS(=O)(=O)c3ccc(Cl)cc3)cc1)C1=C(CCCC1=O)O2	-2	-3.7	-7	-8	5.2%[38.3 µM]	-0.4
COc1ccc(NS(=O)(=O)c2cc3c4c(c2)CCN4C(=O)CC3)c(OC)c1	32	-2.1	-12	-3	-0.4%	-0.5
CNC(=O)C1CN(C(=O)c2cccc(S(=O)(=O)N3CCc4ccccc43)c2)c2ccccc2O1 (configuration not stated)	-12	0.1	-9	-4	0.7%	-0.7
CCOC(=O)N(C)c1c(CC)nc2c(OCCOc3ccccc3)cccn12	2	4.7	-4	.	1.0%	-0.5
FC(F)(F)c1cccc(NC(=S)N2CCCCCC2)c1	0	-2.2	-2	-8	3.3%	0.8
O=C(c1ccc(Cn2c(=O)[nH]c3ccccc3c2=O)cc1)N1CCN(c2ccc(F)cc2)CC1	-21	2.3	6	34	-2.8%	1.7
O=C(OCc1nnc(-c2ccc(Cl)cc2)o1)C12CC3CC(CC(O)(C3)C1)C2	7	8.2	10	-21	2.5%	0.2
COC(=O)c1cccc(NC(=O)c2nn(C(C)C)c(=O)c3ccccc23)c1	-2	-1.8	5	-1	9.1%[38.3 µM]	4.1
CCOC(=O)N1CCN(c2c(NCc3ccccc3OC)c(=O)c2=O)CC1	7	0.4	-6	-3	8.4%	-1.0
CC12CN3CCN(CC(C3)/C1=N\NC(=O)Nc1cccc(Cl)c1)C2	6	-3.6	-5	5	1.6%	0.0

An excerpt from above in order of number of heavy atoms, rising.
SMILES	Six1-Eya2 blk	D2 agonist	D2 potentiator	TRPML1 blocker	PINK1 modulator	TRPML1 ag
CC(C)Sc1nnc(NC(=O)CCc2ccccc2)s1	-1	0.9	-7	-8	4.4%	0.0
CC(=O)c1cccc(NC(=S)NCCCCc2ccccc2)c1	-6	0.7	-16	-4	?	1.6
Cc1ccc(OCC(O)CN2CCC(Cc3ccccc3)CC2)c(C)c1 (configuration not stated)	-10	-0.9	-28	-9	-0.7%	0.1

The main list resumes with the 4 entries that preceded the break.
SMILES	Six1-Eya2 blk	D2 agonist	D2 potentiator	TRPML1 blocker	PINK1 modulator	TRPML1 ag
O=C(OCc1nnc(-c2ccc(Cl)cc2)o1)C12CC3CC(CC(O)(C3)C1)C2	7	8.2	10	-21	2.5%	0.2
COC(=O)c1cccc(NC(=O)c2nn(C(C)C)c(=O)c3ccccc23)c1	-2	-1.8	5	-1	9.1%[38.3 µM]	4.1
CCOC(=O)N1CCN(c2c(NCc3ccccc3OC)c(=O)c2=O)CC1	7	0.4	-6	-3	8.4%	-1.0
CC12CN3CCN(CC(C3)/C1=N\NC(=O)Nc1cccc(Cl)c1)C2	6	-3.6	-5	5	1.6%	0.0
O=C(Oc1ccc2ccccc2c1Br)N1CCCCCC1	44	-3.9	-11	-1	21%	0.8
O=C(Nc1nccs1)c1cc2sccc2n1Cc1ccc(Cl)cc1	5	-4.4	-4	17	6.1%	0.1
CC1CN(S(=O)(=O)c2cccc(C(F)(F)F)c2)CC(C)O1 (configuration not stated)	-1	1.7	0	-6	4.1%	-0.6
CC1OC2(C)OC(=N)C1(C#N)C(C#N)(C#N)C2c1ccccc1 (configuration not stated)	-2	1.0	29	2	2.0%	-0.4
CC1(C(=O)OCC(=O)Nc2ccccc2)CC1(Cl)Cl (configuration not stated)	6	0.1	-3	-5	1.8%	-0.5
CC1CCCN(C(=O)Cc2ccc(F)cc2)C1 (configuration not stated)	2	-1.1	-5	-10	-0.5%	0.6
CCc1ccccc1NS(=O)(=O)c1ccc(NC(=O)N2CCCC2)cc1	.	.	.	3	1.2%	-0.6
CC(=O)C[C@@H](O)CC(=O)[C@H]1OC(=O)[C@H](C)CCCCc2ccccc21	7	0.8	2	2	-0.7%	-0.5
CCN(CCn1cccn1)C(=O)CCc1nnc(CCCc2ccccc2)o1	3	3.0	-1	3	9.7%	-0.7
O=C(NCc1ccco1)C1CCCN1C(=O)Nc1ccccc1[N+](=O)[O-] (configuration not stated)	7	8.0	-1	2	3.0%	-0.2
O=C(COC(=O)c1ccccc1-c1ccccc1[N+](=O)[O-])c1ccccc1	-7	-3.1	7	25	-1.4%	2.6
CCN(CC)C(=O)CN1C(=O)/C(=C/c2ccccc2)SC1=S	2	-3.4	-10	.	4.8%	.
Cc1cccc(-n2c(=O)c3ccccc3n(Cc3ccccc3C#N)c2=O)c1	.	.	.	-2	1.0%	-0.4
Cc1ccn(CC(=O)N/N=C/c2cc([N+](=O)[O-])ccc2O)n1	-90*	-6.9	-14	-8	-1.7%	0.3
COC(=O)c1nnn(-c2nc(N(C)C)nc(N(C)C)n2)c1C	7	-0.5	2	-3	0.3%	0.2
COc1ccc(CC(=O)NCc2nc3cccnc3n2Cc2ccc(C)cc2)cc1OC	.	.	.	2	-1.3%	0.7
CC(=Nc1ccccc1)C1=C(O)C(Cc2ccccc2)NC1=O (configuration not stated)	-1	-2.3	2	16	4.8%	0.7
CC1(C)CC(=O)N(c2cccc(Cl)c2)C(=O)C1	7	0.4	-3	0	-2.6%	1.1
COc1ccc(NC(=O)CCC(=O)OCc2ccc([N+](=O)[O-])cc2)cc1	-8	-0.4	-5	-4	-1.3%	5.3
CCOc1ccccc1NC(=O)C1CCCN(S(=O)(=O)c2cccc3cccnc23)C1 (configuration not stated)	0	-0.2	-2	-6	1.2%	0.8
COc1cccc(-c2cc(C(=O)N3CCN(c4ncccn4)CC3)c3ccccc3n2)c1	-21	-2.4	1	10	-0.7%	2.9
Cc1n[nH]c(C)c1CCc1nc2c3ccccc3nc(SCC(=O)Nc3ccc(F)cc3)n2n1	.	.	.	-5	5.0%	0.2
O=C(NCc1ccccn1)c1ccc(Cl)c(S(=O)(=O)N2CCCCCC2)c1	-14	-2.6	-3	15	0.9%	0.0
CSc1ccccc1NC(=O)CN(C)C(=O)COc1ncnc2ccccc12	-4	-0.3	5	16	0.1%	0.8
Cc1cccc(N(CC(=O)NC2CCCCC2)C(=O)CCCC(=O)Nc2ccccn2)c1	-4	-1.1	-7	1	5.3%	-0.4

The listing continues:
SMILES	Six1-Eya2 blk	D2 agonist	D2 potentiator	TRPML1 blocker	PINK1 modulator	TRPML1 ag
CCc1cccc(CC)c1NC(=O)C(NS(=O)(=O)c1cccs1)c1ccccc1 (configuration not stated)	6	-3.9	-12	-1	5.4%	-0.3
CCC(c1nc2ccccc2c(=O)n1CCN1CCOCC1)N1C(=O)c2ccccc2C1=O (configuration not stated)	-1	-1.7	-8	2	15%[38.3 µM]	0.3
Cc1cc(NC(=O)CSc2nnnn2-c2ccccc2)no1	4	2.8	-7	3	-1.1%	1.8
COc1ccc(/C=N/NC(=O)CSc2nnc(C)n2-c2ccccc2)c(OC)c1OC	0	1.7	-27	0	-1.6%	1.5
COc1ccc(CCNC(=O)c2nc3ncccn3n2)cc1OC	-1	-1.7	-19	-1	-1.5%	-0.4
O=C(c1ccc(F)cc1)N1CCC(c2ccccc2)C1 (configuration not stated)	4	-2.5	-10	4	-0.5%	1.8
COc1ccccc1NC(=O)COC(=O)/C=C/c1ccc(OC)c(OC)c1	-8	-1.2	-5	33	6.8%	1.3
C=CCN(c1ccccc1)S(=O)(=O)c1ccc2[nH]cc(C(=O)NCCOC)c(=O)c2c1	0	4.9	6	-4	11%	0.9
COc1ccc(CCn2c(=N)c(C(=O)NC3CCCC3)cc3c(=O)n4ccccc4nc32)cc1	0	0.2	-22	-9	5.8%	-1.2
COc1ccc(NCC(=O)NN=C2CCS(=O)(=O)c3ccc(F)cc32)cc1	-19	-1.6	-8	9	4.3%	-0.5
CN(C)CCN(C(=O)c1ccco1)c1nc2cc3c(cc2s1)OCCO3	0	-0.9	-18	2	-0.6%	-0.6
COc1cccc(NC(=O)CN(C)C(=O)/C=C/c2cn(Cc3ccccc3)nc2-c2cccnc2)c1	-12	-4.8	-17	-3	1.7%	1.2
O=S(=O)(O)c1ccc(Cl)c(Cl)c1	-1	-1.3	-2	-3	1.8%	-0.4
COC(=O)c1ccc(C2C(C(=O)c3ccco3)=C(O)C(=O)N2CC2CCCO2)cc1 (configuration not stated)	2	-1.1	0	-2	-1.1%	0.0
CCCCn1c2c(c3ccccc31)CCc1nonc1-2	27	5.7	-6	30	23%	1.2
Cc1cc(Cl)c(S(=O)(=O)NC2CCCC2)cc1OCC(=O)NC1CCCCC1	-6	-2.8	-16	27	.	1.9
CSc1ccc(CNC(=O)C2(C)CCCN(C(C)C)C2)cc1 (configuration not stated)	9	-2.7	-7	.	-0.6%	-1.0
COc1ccc(/C(C)=N\NC(=O)CSc2nnc(C)s2)cc1	-22	-1.6	-5	-11	1.2%	1.2
